# From PubChem BioAssay
# MARV entry inh – blocks Marburg virus binding to or entry into cells; Marburg virus pseudotyped entry inhibition, cell reporter; control for the full effect not named in the record; about a third of the inactives were read at about 46 µM; Potency, µM (top dose mostly 37.8 µM), without a hit: at the top dose activity change, negative = inhibition, usual class: inhibitors; actives 1.8% (n = 300,000); active = well fitted inhibition curve with a large enough effect; inconclusive = small, poorly fitted or top-dose-only effect, or effect the other way; inactive = flat fitted curve, though single readings scatter; tested in HEK293 cells; about a fifth of its hits are not listed in these tables; also: % is scaled to controls: 0 for no effect and ±100 for the full control effect; luciferase read-out
# Cruzain Triton – inhibitors of Trypanosoma cruzi cruzain with detergent; P25779; purified cruzain, Z-FR-AMC fluorescence, 0.01% Triton; Potency, µM, without a hit: max response, negative = inhibition, actives largely listed as inhibitors; actives 0.43% (n = 200,000); active = well fitted curve in the direction sought with a large enough effect; inconclusive = small, poorly fitted or top-dose-only effect, or another doubt; inactive = no such curve, though single readings can be large; an effect the other way counts as inactive or inconclusive;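 also: plate controls were neutral wells for no effect and buffer without enzyme for full effect; nearly all actives have a fitted effect of over 40% in size; top concentration of the series not given in the record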
# Target sequence (P25779 123-467 limits assumed): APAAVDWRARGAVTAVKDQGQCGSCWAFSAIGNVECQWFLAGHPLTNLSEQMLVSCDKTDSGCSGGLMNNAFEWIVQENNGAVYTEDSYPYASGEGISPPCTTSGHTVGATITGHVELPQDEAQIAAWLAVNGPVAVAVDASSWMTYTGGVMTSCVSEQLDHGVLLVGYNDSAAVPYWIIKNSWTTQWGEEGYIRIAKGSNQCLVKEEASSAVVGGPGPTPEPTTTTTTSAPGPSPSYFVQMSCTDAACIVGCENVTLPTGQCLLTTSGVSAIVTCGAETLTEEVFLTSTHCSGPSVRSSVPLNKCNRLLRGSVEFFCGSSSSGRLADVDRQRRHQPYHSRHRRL
#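 Enzyme 1.5 nM, Z-FR-AMC 2 uM, NaOAc 100 mM pH 5.5, DTT 5 mM, Triton X-100 0.01%; 15 min RT compound preincubation; kinetic ex360/em450, 60 s delta.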
# LASV entry inh – Lassa virus entry inhibition; Lassa virus pseudotype entry inhibition, cell reporter; control for the full effect not named in the record; actives 1.2% (n = 300,000); Potency, µM (doses to about 37.9 µM), for inactives: at the top dose activity change, negative = inhibition, usual class: inhibitors; AID 540256; active means well fitted inhibition curve with a large enough effect; inconclusive means small, poorly fitted or top-dose-only effect, or effect the other way; inactive means flat fitted curve, though single readings scatter; tested in HEK293 cells; also: % is scaled to controls: 0 for no effect and ±100 for the full control effect; nearly all actives have a fitted effect of over 50% in size; luciferase read-out
# RE007 growth inh – less growth of the S. pombe RE007 Vpr strain. actives 0.21% (n = 360,000). S. pombe RE007 Vpr strain, BacTiter-Glo ATP luminescence, 24 h; control for the full effect not named in the record. Potency, µM (top dose mostly 92.2 µM), inactives show top-dose activity change, negative = less growth; active = well fitted falling curve with a large enough effect; inconclusive = small, poorly fitted or top-dose-only effect; inactive = no such curve, though single readings can be large or run the other way;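 also: % is scaled to controls: 0 for no effect and ±100 for the full control effect; nearly all actives have a fitted effect of over 50% in size; the assay follows cell death caused by Vpr and the record does not say whether a fall means rescue or toxicity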
#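 Fission yeast strain RE007, carrying one chromosomally integrated HIV-1 vpr copy, was seeded at OD 0.01 in PMG+AL medium with 23 nL pinned compound. After 24 h at 30 °C and 99% humidity, viability was read by BacTiter-Glo luminescence.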
# SARS PLpro yeast – blocks SARS-CoV papain-like protease in a yeast assay | AID 485353 | S. cerevisiae expressing SARS-CoV PLpro, growth rescue; control for the full effect not named in the record | Potency, µM (highest dose often 32.9 µM), for inactives: at the top dose activity, positive = growth rescue | actives 0.19% (n = 330,000); also: 0% is about no effect; nearly all actives have a fitted effect of over 55% in size; growth read by luminescence after 48 h
# 2A StopGo – lowers the luciferase signal of an FMDV 2A StopGo reporter; human cells with a luciferase reporter of 2A StopGo recoding; control for the full effect not named in the record; Potency, µM (top dose mostly 57.9 µM), inactives show at the highest dose signal change, negative = less light; actives 1.2% (n = 410,000); AID 1159524; active = well fitted falling curve with a large enough effect; inconclusive = small, poorly fitted or top-dose-only effect; inactive = no such curve, though single readings can be large or run the other way; tested in HEK293T cells; also: % is scaled to controls: 0 for no effect and ±100 for the full control effect; nearly all actives have a fitted effect of over 45% in size; luciferase light after 4 h
# Cruzain inh noDet – cruzain (T. cruzi) inhibition without detergent; AID 1476; actives 2.3% (n = 200,000); purified cruzain, Z-FR-AMC fluorescence, no detergent; Potency, µM, for the others: max response, negative = inhibition, most hits filed as inhibitors; P25779; active = well fitted curve in the direction sought with a large enough effect; inconclusive = small, poorly fitted or top-dose-only effect, or another doubt; inactive = no such curve, though single readings can be large; an effect the other way counts as inactive or inconclusive;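 also: plate controls were enzyme without inhibitor for no effect and buffer without enzyme for full effect; nearly all actives have a fitted effect of over 40% in size; top concentration of the series not given in the record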
#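 Purified cruzain at 1.5 nM, pre-incubated 15 min with compound at room temperature in 100 mM sodium acetate pH 5.5, 5 mM DTT, 0.00005% Triton X-100. Reaction started with 2 uM Z-FR-AMC; AMC fluorescence increase over 60 s gives rate.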
# NS1 inh – inhibitors of influenza NS1 protein function. S. cerevisiae slowed by influenza A NS1, growth recovery by OD600. Potency, µM (highest dose often 46.1 µM), for the others: top-dose activity, positive = more growth. actives 0.4% (n = 270,000); also: actives are rising curves; nearly all actives have a fitted effect of over 50% in size
#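 A cell-based growth assay was used: compounds that relieve NS1-induced slow growth of budding yeast raise OD600. Assay medium was yeast nitrogen base with ammonium sulphate and -URA supplement, pH 6.0, with 2% galactose.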
# Starred values were filed as active, the others as inactive; ? = inconclusive; . = no result given; & = joins results of further samples; [ ] = dose if it differs, or a comment. Unless noted, calls follow the shape of the dose curve; as a rule, active means well fitted rising curve with a large enough effect; inconclusive means small, poorly fitted or top-dose-only effect; inactive means no such curve, though single readings can be large or run the other way. Potency is read from the fitted curve at half-maximal effect.
smiles	MARV entry inh	Cruzain Triton	LASV entry inh	RE007 growth inh	SARS PLpro yeast	2A StopGo	Cruzain inh noDet	NS1 inh
COc1ccc(C2C(C(=O)Nc3ccc(OC)c(OC)c3)c3ccccc3C(=O)N2C)cc1 (stereo not given)	?	.	.	3%	9%	-25%	.	.
CCOc1ccc(CNC(=O)C2CCCN(c3nc4c(C)cc(C)cc4s3)C2)cc1 (stereo not given)	9%[46.1 µM]	0.2%	.	.	.	32%[activator]	-4%	.
O=C(Cc1ccccc1)Nc1ccc(C(=O)NCc2ccccc2)cc1	1%	.	0%	7%	11%	6%	.	20%
Cc1ccc(Nc2c(-c3ccc(N4CCOCC4)cc3)nc3ccc(C)cn23)cc1	-1%[46.1 µM]	-1.4%	26%[46.1 µM]	.	.	-4%	10%	.
CCC(O)(CC)C(=O)N(Nc1ccc(C)cc1)c1ccc(C)cc1	.	.	.	9%	1%	-24%	.	-1%
COc1ccc(Oc2ccc(C(F)(F)F)cc2NC(=O)CC(CC(=O)O)c2ccccc2)cc1 (stereo not given)	5%[46.1 µM]	.	2%[46.1 µM]	10%	0%	-1%	.	16%
Cc1cc(OC(=O)c2cccc([N+](=O)[O-])c2)c(C)cc1CN1CCOCC1	11%	.	-13%	5%	-2%	-23%	.	-9%
Cc1ccc(-n2c(SCc3ccccc3C)nc3[nH]ncc3c2=O)cc1C	.	-9.0%	?	.	.	-21%	?	.
CCN1CCN(c2ccc(S(=O)(=O)N3CCCCC3)cc2NC(=O)CCNC(C)=O)CC1	?	.	13%	-14%	.	-12%	.	.
CCc1c(O)nc(SCC(=O)N(CC)CC)[nH]c1=O	-5%[46.1 µM]	.	-3%	22%	0%	3%	.	4%
Cc1ccc(C)c(NC(=O)CSc2c3c(nc4ccc(Cl)cc24)CCCC3)c1	-3%[46.1 µM]	-3.0%	-1%[46.1 µM]	.	.	-16%	-10%	.
CCOc1ccc(NC(=O)CCSc2nc3c(c(CC)c2C#N)C(=O)CC(C)(C)C3)cc1	?	3.6%	-16%	5%	-1%	-11%	6%	-17%
O=C(Nc1ccc(N2CCN(C(=O)c3ccco3)CC2)c(Cl)c1)c1cccs1	?	-3.7%	?	-11%	-10%	-23%	-16%	-45%
COc1cccc([C@@H]2Oc3ccc(OC)cc3C(=O)[C@H]2OC(=O)Nc2cc(OC)c(OC)c(OC)c2)c1	13%[14.2 µM]	0.4%&-6.8%	-13%	-9%	-7%	29%	?	6%
CSCCC(=O)N1CCCC(CO)(CCCc2ccccc2)C1 (stereo not given)	2%[46.1 µM]	.	0%[46.1 µM]	-23%	-3%	0%	.	13%
COc1ccc(Oc2c(C)oc3c(CN4CCOCC4)c(O)ccc3c2=O)cc1	0%	-2.1%	-17%	7%	-6%	-16%	20%	-4%
O=C(Nc1ccc(F)cc1F)N1CCCCC1c1cccnc1 (stereo not given)	-5%	-1.1%	-7%	-26%	-5%	-14%	0%	19%
Cc1cc(C)nc(NS(=O)(=O)c2ccc(NC(=S)NC(=O)c3ccco3)cc2)n1	-8%[46.1 µM]	.	-3%	-12%	-1%	102%[activator]	.	2%
O=C(NCc1ccccc1Cl)C(=O)c1cn(CC(=O)N2CCOCC2)c2ccccc12	?	.	22%[46.1 µM]	11%	5%	9%	.	18%
Cc1ccc(/C(O)=C2\C(=O)C(=O)N(CCN(C)C)C2c2ccccc2F)cc1 (stereo not given)	21%	-1.0%	-31%	-1%	1%	21%	4%	12%

# Grouped by structure: the compounds so far with a furan ring, fused or not.
smiles	MARV entry inh	Cruzain Triton	LASV entry inh	RE007 growth inh	SARS PLpro yeast	2A StopGo	Cruzain inh noDet	NS1 inh
O=C(Nc1ccc(N2CCN(C(=O)c3ccco3)CC2)c(Cl)c1)c1cccs1	?	-3.7%	?	-11%	-10%	-23%	-16%	-45%
Cc1cc(C)nc(NS(=O)(=O)c2ccc(NC(=S)NC(=O)c3ccco3)cc2)n1	-8%[46.1 µM]	.	-3%	-12%	-1%	102%[activator]	.	2%

# Other records follow:
smiles	MARV entry inh	Cruzain Triton	LASV entry inh	RE007 growth inh	SARS PLpro yeast	2A StopGo	Cruzain inh noDet	NS1 inh
CN(C)C(CNS(=O)(=O)c1ccc(Cl)cc1F)c1ccco1 (stereo not given)	18%	.	3%	-1%	.	33%[activator]	.	.
N#Cc1ccc(CSCC(=O)NN=C2CCCC2)cc1	-2%[46.1 µM]	.	?	-1%	-4%	0%	.	.
COc1ccc2c(c1)C(=NN)c1cc(OC)ccc1-2	15%	-8.7%	11%	-8%	4%	0%	-3%	4%
O=C(Cn1c2ccccc2c(=O)c2ccccc21)N/N=C/c1cc([N+](=O)[O-])ccc1N1CCCCCC1	?	-1.8%	-6%	17%	-2%	1%	6.3µM*	14%
O=C(N/N=C/c1cccc([N+](=O)[O-])c1)c1cnccn1	-4%	-0.6%	?	7%	-13%	13%	-5%	5%
CCOC(=O)c1c(C)[nH]c(C)c1S(=O)(=O)NC(CC)CN1CCOCC1 (stereo not given)	.	.	.	-5%	-2%	5%	.	-2%
COc1ccc(C)cc1-n1c(SCC(=O)Nc2cccc(C(=O)O)c2)nc2ccccc2c1=O	.	.	.	5%	-1%	-12%	.	?
Cc1cc(Cl)ccc1OCC(=O)NCCCCc1ccccc1	19%	-8.2%	3%	-22%	-49%	0%	-4%	-19%
CCCCCn1c(=O)[nH]c2cc(C(=O)Nc3ccc(OC)cc3)ccc2c1=O	25%[46.1 µM]	.	-8%	-9%	-1%	15%	.	8%
O=c1c2ccccc2n(Cc2ccc(Cl)cc2)c(=O)n1Cc1ccco1	-17%	-6.8%	-1%	36%	0%	?	-10%	-5%
CSc1ccccc1Sc1cc(C(=O)O)c2ccccc2n1	?	-5.2%	-12%	-2%	-7%	-13%	-3%	5%
COc1ccc(Nc2cc(=O)n(-c3ccccc3)c3c2c(=O)n(C)c(=O)n3C)cc1	2%[46.1 µM]	.	-23%[46.1 µM]	-3%	0%	-27%	.	3%
CCOc1ccc(-c2nnc(NC(=O)Cc3ccc(OC)cc3)o2)cc1	-2%[46.1 µM]	.	.	-19%	-1%	11%	.	0%
O=C(Cc1c(Cl)cccc1Cl)OCC(=O)N1CCN(C(=O)c2ccco2)CC1	-4%[46.1 µM]	.	4%[46.1 µM]	3%	2%	3%	.	1%
Cc1ccc(C)c(-n2c(CCC(=O)O)ccc2-c2ccc(Cl)cc2)c1	1%[46.1 µM]	-28%	-4%[46.1 µM]	.	.	-22%	-13%	.
O=C(Nc1ccc(Br)c(Cl)c1)c1ccco1	-2%	-2.9%	-21%	?	-35%	30%	-1%	-103%
Cc1ccc(-c2nc(N)s[n+]2-c2ccccc2)cc1	15%	2.5%	?	3%	8%	-6%	-9%	24%
CCOc1ccc(NC(=O)C(=O)N/N=C\c2ccc(CNS(=O)(=O)c3ccccc3)o2)cc1	-19%	-3.2%	?	-17%	7%	-6%	?	5%
CC(NC(=O)/C=C/c1ccco1)c1nc2ccccc2n1Cc1cccc(Cl)c1 (stereo not given)	-1%	-4.4%	?	0%	-4%	?	-11%	12%
O=C(NCC(=O)N1CCOCC1)OCc1ccccc1	.	.	.	-4%	2%	31%[activator]	.	-3%
O=C(CSc1nnc(-c2cccnc2)s1)Nc1ccc(C(=O)O)cc1	12%	-1.8%	1%	-9%	14%	-23%	-1%	5%
CCOCc1c(C(=O)OCC(=O)NCc2ccc(F)cc2)oc2ccccc12	-12%	.	-3%	?	-1%	-19%	.	.
CCOc1ccc(CCNC(=O)c2nnc(CS(=O)(=O)c3ccccc3)o2)cc1OCC	?	.	3%[46.1 µM]	-13%	6%	-11%	.	11%
COc1ccc(S(=O)(=O)N2CCC(C(=O)NC3CC3)CC2)cc1C	?	.	4%	-12%	3%	16%	.	9%
COc1ccc(-c2c(C)n([O-])c3c([n+]2=O)CCC3)cc1OC	2%	-4.2%	4%	15%	4%	10%	-3%	?
CC(C)[C@H](NC(=O)c1ccccc1F)C(=O)Nc1nc2c(s1)CCCC2	18%[46.1 µM]	-9.4%	5%	-9%	-2%	33%[activator]	-7%	-7%
N#Cc1c(N)nc2c(c1-c1ccncc1)CCCCCC2	17%	.	?	63%	.	30%[activator]	.	8%
Cc1ccc(S(=O)(=O)N2CCOCC2)cc1C(=O)OCC(=O)N1c2ccccc2NC(=O)C1(C)C	3%	-4.5%	.	.	4%	.	?	2%
CCCNc1ccc(-c2nc(-c3ccccn3)no2)cc1[N+](=O)[O-]	-12%[46.1 µM]	-1.6%	1%[46.1 µM]	.	.	-21%	-2%	.
Cc1nc2c(cc1C(=O)N/N=C/c1ccc([N+](=O)[O-])cc1)c(=O)n(C)c(=O)n2C	2%	0.5%	12%	6%	26%	-7%	-16%	10%
CN(C)CCN(Cc1ccco1)S(=O)(=O)c1ccc(-c2ccc(=O)[nH]n2)s1	14%[46.1 µM]	.	?	0%	1%	-9%	.	-8%
Cc1cc(C)n(-c2c(C)[nH]c3ccccc23)n1	-10%[46.1 µM]	.	0%	-11%	0%	-17%	.	.
CCCCC1(CN2CCCC2=O)C(=O)NC(=O)NC1=O	13%	-0.2%	-18%	2%	-1%	-2%	18%	3%
CCOCCCNC(=O)c1[nH]c(C)c(C(C)=O)c1C	12%[46.1 µM]	8.8%	8%	0%	9%	46%[activator]	-6%	0%
Cc1c(C(=O)N2CCCC2)oc2c1-c1nn(CC(=O)NCCCN3CCCCC3)cc1CC2	.	.	.	1%	1%	-18%	.	15%
Cc1ccc(S(=O)(=O)N2CCCc3cc(NS(=O)(=O)c4ccc(F)c(C)c4)ccc32)cc1	.	-2.4%	-27%[46.1 µM]	.	.	-40%	?	.
